# AF4-AF9 inh: inhibitors of AF4 peptide binding to AF9, primary screen, biochemical, AlphaScreen, biotin-AF4 peptide, FLAG-AF9, single point; Protein AF-9 (Homo sapiens), P42568; inhibition, % at 10 µM; 350,000 compounds, 0.47% hits;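 active = every replicate reaching a set inhibition limit, whatever the replicate mean, cut at about 25% in these data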;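 also: 0% = plate neutral control median and 100% = total signal loss; the record names both 10 and 1 µM as test concentration; the first replicate is given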
# Target sequence (P42568 whole entry, looked up): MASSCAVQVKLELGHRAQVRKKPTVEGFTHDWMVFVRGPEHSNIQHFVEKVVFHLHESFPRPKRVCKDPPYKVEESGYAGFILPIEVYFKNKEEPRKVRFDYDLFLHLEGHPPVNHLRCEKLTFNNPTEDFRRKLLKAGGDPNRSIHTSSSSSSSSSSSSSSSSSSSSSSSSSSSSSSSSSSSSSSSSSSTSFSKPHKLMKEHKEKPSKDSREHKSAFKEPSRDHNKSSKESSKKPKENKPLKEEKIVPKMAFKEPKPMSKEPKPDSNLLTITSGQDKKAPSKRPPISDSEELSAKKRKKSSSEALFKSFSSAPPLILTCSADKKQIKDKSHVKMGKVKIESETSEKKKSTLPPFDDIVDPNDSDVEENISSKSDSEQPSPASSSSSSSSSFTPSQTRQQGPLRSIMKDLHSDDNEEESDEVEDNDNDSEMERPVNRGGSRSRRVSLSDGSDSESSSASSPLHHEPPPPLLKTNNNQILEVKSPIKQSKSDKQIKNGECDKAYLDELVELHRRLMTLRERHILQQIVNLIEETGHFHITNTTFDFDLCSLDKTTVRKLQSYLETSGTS
# FGF22 binding: binders of human FGF22 protein, primary screen, FGF22 synaptogenesis inhibitor project, biophysical, thermal shift, single point; calls only at 9.99 µM; 340,000 compounds, 1.5% hits; recombinant FGF22 thermal shift, SYPRO orange fluorescence; percent of sucrose octasulfate shift, DMSO zero; Fibroblast growth factor 22 (Homo sapiens), Q9HCT0;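 active = melting point raised past a set limit in the mean and every replicate; three in four hits are not shown here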
# Target sequence (Q9HCT0 whole entry, looked up): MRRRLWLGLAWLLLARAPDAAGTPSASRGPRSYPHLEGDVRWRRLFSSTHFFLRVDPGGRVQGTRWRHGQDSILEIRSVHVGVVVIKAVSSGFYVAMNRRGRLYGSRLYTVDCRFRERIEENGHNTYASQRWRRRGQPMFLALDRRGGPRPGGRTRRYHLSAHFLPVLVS
# An asterisk follows results filed as active; i = inactive. An excerpt; the hit share may differ from the screen's.
molecule	AF4-AF9 inh	FGF22 binding
COCC(=O)Nc1ccc2c(c1)C(=O)N(C)C[C@@H](OC)[C@H](C)CN(CCC(F)(F)F)[C@@H](C)CO2	0.7	i
C[C@@H]1CN([C@@H](C)CO)C(=O)c2cc(C#CCc3ccccc3)cnc2O[C@@H]1CN(C)Cc1cccc(F)c1	5.3	i
Cc1cc(C(=O)Nc2cccc3c2O[C@@H](CN(C)S(=O)(=O)c2cccs2)[C@@H](C)CN([C@@H](C)CO)C3=O)n(C)n1	-16	i
C[C@H]1CN([C@@H](C)CO)C(=O)c2cc(-c3cccnc3)cnc2O[C@H]1CN(C)C(=O)c1cccc(F)c1	-4.7	i
CCC(=O)N(C)C[C@H]1Oc2cc(C#Cc3ccncc3)ccc2S(=O)(=O)N([C@@H](C)CO)C[C@H]1C	-5.7	i
CC(C)NC(=O)Nc1ccc2c(c1)C(=O)N(C)[C@H]1CC[C@@H](CC(=O)NCc3ccc(F)cc3)O[C@@H]1CO2	0.3	i
COc1ccc(S(=O)(=O)Nc2ccc3c(c2)C(=O)N([C@H](C)CO)C[C@@H](C)[C@H](CN(C)CC2CCCCC2)O3)cc1	2.1	i
CN(C)C(=O)C[C@@H]1C[C@@H]2c3cc(NC(=O)C4CCC4)ccc3O[C@@H]2[C@H](CO)O1	-0.1	i
CO[C@H]1CN(C)C(=O)c2cc(NC(C)=O)ccc2OC[C@@H](C)N(C(=O)c2ccccc2)C[C@@H]1C	-0.8	i
C[C@H]1CN([C@@H](C)CO)C(=O)c2cccc(NC(=O)Nc3ccccc3)c2O[C@@H]1CN(C)Cc1ccncc1	0.2	i
COCC(=O)Nc1ccc2c(c1)OC[C@@H](C)N(C(=O)c1ccccc1F)C[C@H](C)[C@H](OC)CN(C)C2=O	1.1	i
C[C@@H]1CN([C@H](C)CO)C(=O)c2cccc(NC(=O)Nc3ccc(C(F)(F)F)cc3)c2O[C@H]1CN(C)Cc1ccc(C(F)(F)F)cc1	-1.0	i
COc1cccc(C(=O)Nc2ccc3c(c2)C(=O)N(C)C[C@H](OC)[C@H](C)CN(C(=O)C2CCCC2)[C@@H](C)CO3)c1	-7.6	i
Cc1ccc(-c2ccc([C@H]3[C@H]4CN(C(=O)CN5CCOCC5)CC(=O)N4[C@H]3CO)cc2)cc1	-2.8	i
COc1ccc(NC(=O)N(C)C[C@@H]2OCCCC[C@@H](C)Oc3ccc(NC(=O)NC(C)C)cc3C(=O)N([C@H](C)CO)C[C@@H]2C)cc1	-0.3	i
CCCC(=O)Nc1ccc2c(c1)OC[C@@H](C)N(Cc1ccncc1)C[C@H](C)[C@H](OC)CN(C)C2=O	-5.8	i
Cc1noc(C)c1NC(=O)Nc1ccc2c(c1)CC(=O)N([C@H](C)CO)C[C@@H](C)[C@@H](CN(C)S(=O)(=O)c1cccs1)O2	-1.0	i
C[C@H](CO)N1C[C@H](C)[C@@H](CN(C)Cc2ccccc2)Oc2c(cccc2N(C)C)C1=O	-5.7	i
C[C@H]1CN([C@@H](C)CO)C(=O)CCCn2nncc2CO[C@H]1CN(C)S(=O)(=O)c1ccc(-c2ccccc2)cc1	2.3	i
CCC(=O)N1CCCCN2[C@H](CO)[C@H](c3ccc(C#CCOC)cc3)[C@@H]2C1	-5.0	i
C[C@@H]1CN([C@H](C)CO)C(=O)c2cc(NS(=O)(=O)c3cccs3)ccc2O[C@@H](C)CCCCO[C@H]1CN(C)Cc1ccncc1	4.2	i
CN1CCN(C(=O)C[C@@H]2CC[C@@H]3[C@H](COC[C@H](O)CN3Cc3cccc(-c4ccncc4)c3)O2)CC1	-2.4	i
Cc1ccccc1S(=O)(=O)N1CC[C@@H]2[C@H]1c1cc(-c3ccccc3)ccc1N[C@@H]2CO	-1.1	i
C[C@H](CO)N1C[C@H](C)[C@H](CN(C)C(=O)CN(C)C)Oc2cc(C#Cc3cccnc3)ccc2S1(=O)=O	-8.1	i
COc1ccc(CN(C)C[C@@H]2Oc3ccc(NC(=O)CCCN(C)C)cc3C(=O)N([C@@H](C)CO)C[C@H]2C)cc1	-0.7	i
COc1ccc(NC(=O)N(C)C[C@H]2Oc3ccc(NS(=O)(=O)c4ccccc4)cc3CC(=O)N([C@@H](C)CO)C[C@@H]2C)cc1	-0.5	i
C[C@@H]1CN([C@@H](C)CO)C(=O)c2cc(-c3ccccc3F)cnc2O[C@@H]1CN(C)Cc1ccc(F)cc1	-5.5	i
CC(C)NC(=O)N(C)C[C@@H]1Oc2ccc(NC(=O)Nc3ccc4c(c3)OCO4)cc2CC(=O)N([C@H](C)CO)C[C@@H]1C	1.4	i
CC(=O)N(C)C[C@@H]1[C@@H](c2ccccc2)[C@H](CO)N1C(=O)C1CCC1	-2.5	i
C[C@H](CO)N1C[C@H](C)[C@H](CN(C)Cc2ccc(Cl)c(Cl)c2)OCc2ccccc2-c2c(n(C)c3ccccc23)C1=O	1.4	i
O=C(N[C@H]1CC[C@H](CCn2cc(Cc3ccccc3)nn2)O[C@H]1CO)c1ccccn1	0.0	i
C[C@@H]1CN([C@@H](C)CO)C(=O)c2cc(/C=C/c3ccccc3)cnc2O[C@H]1CN(C)C(=O)Cc1cccnc1	-0.4	i
C[C@@H]1CN([C@@H](C)CO)C(=O)c2cc(C#Cc3ccccc3)cnc2O[C@H]1CN(C)C(=O)CCN1CCCCC1	13	i
C[C@H]1CN([C@@H](C)CO)C(=O)c2c(c3ccccc3n2C)-c2ccccc2CO[C@@H]1CN(C)C(=O)C1CC1	2.5	i
COc1cccc(S(=O)(=O)N2CC[C@@H]3[C@H](CO)Nc4ccc(C#Cc5ccccc5)cc4[C@@H]32)c1	-7.5	i
C[C@@H]1CN([C@H](C)CO)C(=O)c2cc(C#C[C@@H](C)O)cnc2O[C@@H]1CN(C)C(=O)Nc1ccc(C(F)(F)F)cc1	-3.0	i
CC(C)CN(C[C@@H]1[C@@H](c2ccccc2)[C@H](CO)N1C(=O)C1CCC1)C(=O)C1CC1	-4.6	i
C[C@@H]1CN([C@H](C)CO)C(=O)c2cc(NC(=O)C3CCCCC3)ccc2O[C@H]1CN(C)CC1CCCCC1	2.2	i
C[C@@H]1CCCCO[C@H](CN(C)Cc2ccccc2)[C@H](C)CN([C@H](C)CO)C(=O)c2cc(NC(=O)Nc3ccccc3)ccc2O1	15	i
CNC[C@H]1OCCCC[C@@H](C)Oc2ccc(NS(=O)(=O)c3ccc(Cl)cc3)cc2C(=O)N([C@H](C)CO)C[C@@H]1C	0.8	i
COc1ccccc1NC(=O)N1CCCCN2[C@H](CO)[C@@H](c3ccc(-c4cccc(C#N)c4)cc3)[C@@H]2C1	-3.5	i
CNC[C@H]1Oc2cc(-c3cccnc3)ccc2S(=O)(=O)N([C@@H](C)CO)C[C@@H]1C	-12	i
CCC(=O)N(C)C[C@H]1Oc2cc(C#CCN(C)C)ccc2S(=O)(=O)N([C@@H](C)CO)C[C@@H]1C	0.2	i
Cc1ccc(S(=O)(=O)Nc2cccc3c2O[C@@H](CN(C)S(=O)(=O)c2ccc(C)cc2)[C@@H](C)CN([C@@H](C)CO)C3=O)cc1	0.9	i
Cc1ccc(S(=O)(=O)N[C@H]2CC[C@H](CCNS(=O)(=O)Cc3ccccc3)O[C@H]2CO)cc1	-0.4	i
C[C@H]1CCCCO[C@H](CN(C)C(=O)NC2CCCCC2)[C@@H](C)CN([C@@H](C)CO)C(=O)c2cc(NS(=O)(=O)c3ccccc3)ccc2O1	2.6	i
O=C1CN(Cc2ccc(F)cc2)C[C@@H]2[C@H](c3ccc(-c4ccccc4)cc3)[C@H](CO)N12	1.4	i
COc1ccc(S(=O)(=O)N(C)C[C@@H]2Oc3ccc(N(C)C)cc3C(=O)N([C@@H](C)CO)C[C@H]2C)cc1	-1.2	i
CC(C)c1cn(CC[C@@H]2CC[C@H](NC(=O)Nc3cc(Cl)cc(Cl)c3)[C@@H](CO)O2)nn1	-0.4	i
Cc1ccc(S(=O)(=O)N(C)C[C@H]2Oc3c(NS(C)(=O)=O)cccc3C(=O)N([C@H](C)CO)C[C@@H]2C)cc1	0.0	i

# Further records follow:
molecule	AF4-AF9 inh	FGF22 binding
C[C@H](CO)N1C[C@H](C)[C@H](CN(C)Cc2cccc3c2OCCCO3)OCc2cnnn2CCCC1=O	0.2	i
C[C@H](CO)N1C[C@H](C)[C@H](CN(C)S(=O)(=O)c2cccs2)Oc2ccc(NC(=O)Cc3cn(C)c4ccccc34)cc2CC1=O	-1.4	i
CNC[C@@H]1Oc2ccc(NS(=O)(=O)c3ccc(F)cc3)cc2C(=O)N([C@H](C)CO)C[C@@H]1C	-1.1	i
C[C@@H](NC(=O)C[C@@H]1CC[C@@H](NC(=O)C2CC2)[C@H](CO)O1)c1ccccc1	-0.8	i
C[C@H](CO)N1C[C@H](C)[C@@H](CN(C)C(=O)Cc2ccccn2)Oc2ncc(C#CC3CCCCC3)cc2C1=O	5.9	i
COc1ccc(C#Cc2cccc(-c3nc(C(=O)N[C@@H]4CCN(Cc5ccccc5)C4)cc4c3[C@H](CCO)N(S(=O)C(C)(C)C)C4)c2)cc1OC (stereo not given in full)	4.3	i
NCC[C@@H]1CC[C@@H](NC(=O)c2ccccc2F)[C@H](CO)O1	3.2	i
O=C(C[C@H]1CC[C@@H]2[C@H](COC[C@H](O)CN2Cc2cccc(-c3ccncc3)c2)O1)N1CCN(c2ccccc2)CC1	4.4	i
C[C@@H]1CCCCO[C@H](CN(C)Cc2ccncc2)[C@H](C)CN([C@H](C)CO)C(=O)c2cc(NS(=O)(=O)c3ccc(F)cc3)ccc2O1	1.4	i
COc1ccc(S(=O)(=O)N(C)C[C@H]2OCc3ccccc3-c3ccccc3C(=O)N([C@H](C)CO)C[C@H]2C)cc1	-0.4	i
C[C@@H]1CN([C@@H](C)CO)C(=O)Cc2cc(NS(=O)(=O)c3cn(C)cn3)ccc2O[C@H]1CN(C)C(=O)Nc1ccc(C(F)(F)F)cc1	3.9	i
O=C(NCC[C@H]1CC[C@H](NC(=O)C2CC2)[C@H](CO)O1)c1ccc(F)cc1	-2.0	i
CO[C@@H]1CN(C)C(=O)c2ccc(NC(=O)C3CCCCC3)cc2OC[C@H](C)N(C)C[C@H]1C	-0.7	i
CCCNC(=O)N1C[C@H]2[C@@H](c3ccccc31)[C@@H](CO)N2C(=O)Cc1ccccn1	-1.7	i
CC(C)NC(=O)Nc1ccc2c(c1)C(=O)N([C@@H](C)CO)C[C@H](C)[C@@H](CN(C)S(=O)(=O)c1ccc(Cl)cc1)OCCCC[C@H](C)O2	3.8	i
C[C@@H]1CN([C@@H](C)CO)C(=O)c2cccc(NC(=O)c3nc4ccccc4s3)c2O[C@H]1CN(C)S(C)(=O)=O	-2.9	i
C[C@@H]1CN([C@H](C)CO)C(=O)Cc2cc(NC(=O)Cn3cnnn3)ccc2O[C@H]1CN(C)S(=O)(=O)c1ccc(F)cc1	1.1	i
CCCN(C)C[C@H]1Oc2cc(C#CC3CCCC3)ccc2S(=O)(=O)N([C@H](C)CO)C[C@H]1C	7.1	i
CC(C)NC(=O)N(C)C[C@@H]1Oc2ccc(NC(=O)c3ccncc3)cc2C(=O)N([C@@H](C)CO)C[C@H]1C	-0.7	i
O=C(NCC[C@H]1CC[C@@H](NC(=O)C2CCC2)[C@H](CO)O1)Nc1ccc(Cl)cc1	9.5	i

# Reformatted: entries from further up.
O=C(NCC[C@H]1CC[C@@H](NC(=O)C2CCC2)[C@H](CO)O1)Nc1ccc(Cl)cc1
  AF4-AF9 inh: 9.5; FGF22 binding: i
C[C@@H]1CN([C@@H](C)CO)C(=O)Cc2cc(NS(=O)(=O)c3cn(C)cn3)ccc2O[C@H]1CN(C)C(=O)Nc1ccc(C(F)(F)F)cc1
  AF4-AF9 inh: 3.9; FGF22 binding: i
CCCNC(=O)N1C[C@H]2[C@@H](c3ccccc31)[C@@H](CO)N2C(=O)Cc1ccccn1
  AF4-AF9 inh: -1.7; FGF22 binding: i
CC(C)NC(=O)Nc1ccc2c(c1)C(=O)N([C@@H](C)CO)C[C@H](C)[C@@H](CN(C)S(=O)(=O)c1ccc(Cl)cc1)OCCCC[C@H](C)O2
  AF4-AF9 inh: 3.8; FGF22 binding: i

# Next records follow:
molecule	AF4-AF9 inh	FGF22 binding
Cc1ccccc1-c1ccc([C@H]2[C@@H](CO)N3CCCCN(C(=O)Nc4cccc(F)c4)C[C@@H]23)cc1	-3.0	i
O=C(C[C@@H]1CC[C@@H](NC(=O)Nc2ccccc2)[C@H](CO)O1)NCc1cccc(F)c1	-3.2	i
C[C@H]1CN([C@@H](C)CO)C(=O)c2cccc(NC(=O)C3CCCCC3)c2O[C@H]1CN(C)Cc1ccccc1	-1.3	i
C[C@H](CO)N1C[C@H](C)[C@@H](CN(C)S(=O)(=O)c2cn(C)cn2)Oc2ccc(NC(=O)Nc3cccc4ccccc34)cc2C1=O	-1.0	i
C[C@H](NC(=O)C[C@H]1CC[C@@H](NC(=O)C2CCC2)[C@H](CO)O1)c1ccccc1	0.1	i
C[C@H]1CN([C@@H](C)CO)C(=O)c2c(c3ccccc3n2C)-c2ccccc2CO[C@H]1CN(C)Cc1ccc(Cl)c(Cl)c1	0.9	i
C[C@@H]1CCCCO[C@@H](CN(C)C(=O)CCCN(C)C)[C@@H](C)CN([C@H](C)CO)C(=O)c2cc(NS(=O)(=O)c3cccs3)ccc2O1	-1.5	i
CCC(=O)N1[C@H](CO)[C@H](c2ccccc2)C12CN(C(=O)c1ccncc1)C2	-1.6	i

# Source: PubChem BioAssay (Broad Institute)
